Beta cell apopt: blocks beta cell apoptosis. protection from apoptosis, % (test concentration not listed). 0.8% of 300,000 active. AID 435005. INS-1E cytokine-induced death, ATP luminescence, 48 h; percent of positive-control rescue, neutral wells zero;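 active means all replicates at 75% or more, or half of them and the mean; inconclusive means half reach 75% but not the mean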;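 further: 0% = cytokine-treated negative control wells and 100% = positive control rescue; higher means more ATP so stronger rescue from cytokine killing; wells of about 40 µL received 100 nL stock; the first replicate is given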
Calb FLC: affects C. albicans growth with fluconazole | AID 1979 | 0.57% of 300,000 active | growth inhibition, % (no concentration beside the values) | C. albicans CaCi-2 (fluconazole-resistant clinical isolate) + fluconazole, Alamar Blue growth, 48 h;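 active means most replicates above 75%; inconclusive means exactly half above 75%; inactive means most below 75%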;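 further: all wells also contain fluconazole at 8 µg/ml as a sub-toxic cotreatment; 0% = median of DMSO wells and 100% = median of geldanamycin control wells; wells of about 8 µL received 7.5 nL stock; the first replicate is given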
RanGTP-Impb inh: inhibitors of RanGTP-importin-beta interaction, primary screen, biochemical, FRET, CFP-Ran, YFP-importin-beta, homogeneous; cell-free CFP-Ran/YFP-importin-beta FRET ratio; inhibition, % (no concentration beside the values); 1.1% of 300,000 active;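 active means most replicates above 15%; inconclusive means exactly half above 15%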;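 further: 0% = DMSO wells and 100% = Ran loaded with GDP instead of GTP; wells of about 40 µL received 100 nL stock; the first replicate is given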
MLL AF4-AF9 inh: MLL-AF4/AF9 protein interaction inhibition; P42568; AlphaScreen, biotin-AF4 peptide binding to FLAG-AF9; inhibition, % at 10 µM; 0.47% of 350,000 active;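 active means every replicate reaching a set inhibition limit, whatever the replicate mean, cut at about 25% in these data; inconclusive means mean inhibition reaches that limit but some replicates miss it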;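 further: 0% = plate neutral control median and 100% = total signal loss; the record names both 10 and 1 µM as test concentration; the first replicate is given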
Target sequence (P42568 whole entry, looked up): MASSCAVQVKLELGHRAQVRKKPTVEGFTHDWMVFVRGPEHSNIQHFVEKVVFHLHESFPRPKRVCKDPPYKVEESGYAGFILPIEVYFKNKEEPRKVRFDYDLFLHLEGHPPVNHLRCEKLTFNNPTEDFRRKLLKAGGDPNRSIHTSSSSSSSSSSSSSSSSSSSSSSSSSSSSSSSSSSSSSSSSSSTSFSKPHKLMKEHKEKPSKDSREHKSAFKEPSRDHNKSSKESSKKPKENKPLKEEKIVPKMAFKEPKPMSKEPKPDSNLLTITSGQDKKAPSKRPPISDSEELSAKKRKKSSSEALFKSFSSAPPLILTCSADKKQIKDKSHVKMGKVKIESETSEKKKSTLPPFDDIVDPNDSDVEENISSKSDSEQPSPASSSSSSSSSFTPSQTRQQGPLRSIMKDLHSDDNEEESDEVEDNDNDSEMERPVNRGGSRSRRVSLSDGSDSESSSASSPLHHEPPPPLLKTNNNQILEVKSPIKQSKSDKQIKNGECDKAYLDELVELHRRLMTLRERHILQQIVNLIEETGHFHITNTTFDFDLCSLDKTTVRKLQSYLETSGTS
Bfl-1 A1 inh: inhibitors of the anti-apoptotic protein A1, read as caspase activation; caspase activation, % (concentration not given with the values); 0.066% of 330,000 active; MEF A1-2A-BIM cells, Caspase-Glo 3/7 luminescence, 3 h; percent of clofoctol response, vehicle zero;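 active means over half of replicate activation scores above 10%, or exactly half above 10 with the replicate mean above 10; inconclusive means replicate mean below 10 yet half the replicates above 10; inactive means over half of replicates below 10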;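 further: wells of about 30 µL received 50 nL stock; many hits fall short of the cut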
T cruzi repl: blocks replication of Trypanosoma cruzi; T. cruzi beta-gal in NIH3T3, luminescence, 90 h; inhibition, % (concentration not given with the values); 1.4% of 300,000 active;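 active means mean inhibition across valid replicates above about 55%, limit read from the data; inconclusive means mean below that limit but half or more replicates reach it; inactive means mean below it, under half of replicates reach it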;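 further: signal also drops with host cell toxicity which is not excluded here; 0% = plate median of DMSO wells and 100% = zero luminescence signal; higher percent means less beta-gal luminescence so fewer parasites; stock transfer was 50 nL into about 50 µL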
Vif TR-FRET: inhibitors of Vif binding to APOBEC3G peptide, primary screen, biochemical, TR-FRET, GST-Vif 1-94, biotin-A3G peptide, dose response retest (AID 1117319) | TR-FRET GST-Vif / biotin-A3G peptide binding; higher % means a stronger effect; test concentration not given here; strong numbers were not always called active | inhibition, %; hits with a dose series show IC50 in µM | 0.57% of 260,000 active;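 active means above the screen mean plus three standard deviations and confirmed in dose response; inconclusive means results disagree or hit not tested in dose response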;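 further: Vif residues 1-94 fused to GST binding biotinylated APOBEC3G peptide 110-148; 0% = full assay without inhibitor and 100% = GST in place of GST-Vif; retest series ran down from 100 µM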
rRNA inh HTS: selective bacterial rRNA inhibition in E. coli; E. coli WT GFP vs humanized-ribosome RFP mutants, fluorescence, 24 h; stronger effect = lower value; DMSO median 0, no signal -100; GFP signal change (wild-type ribosome), % (test concentration not listed); 1.6% of 350,000 active; AID 720706;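 active means significant combined selectivity score with lowered wild-type GFP, culture density cut under 30%, mutant RFP and density less affected; inactive means any of these conditions unmet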; further: one replicate is shown; some compounds called inactive have numbers as strong as hits
rRNA inh HTS OD600: further read-out of rRNA inh HTS, marked with its call; OD600 change, %; measured here: OD600 growth;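 optical density of the mix in the first replicate; 0 = DMSO median and -100 = no signal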
rRNA inh HTS RFP: second read-out of rRNA inh HTS, no call of its own (marks repeat the call); RFP signal change, %; measured here: RFP humanized mutant strains;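 first replicate; 0 = DMSO median and -100 = no signal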
* marks the source's active call; other numbers are inactive results; u = inconclusive; x = not tested or not shown.

Preview, 2 compounds:
canonical_smiles	Bfl-1 A1 inh	Beta cell apopt	rRNA inh HTS	Calb FLC	RanGTP-Impb inh	rRNA inh HTS OD600	T cruzi repl	rRNA inh HTS RFP	Vif TR-FRET	MLL AF4-AF9 inh
COCc1nnc(NC(=O)CC(C)c2ccccc2)s1 (stereo not given)	-0.2	4	x	-24	-2.9	x	-4	x	0%	x
O=C(NCc1ccco1)c1cccn2c(=O)c3sccc3nc12	x	3	-8	11	8.3	-9	2	0.9	2%	x

The list itself (from the top)
canonical_smiles	Bfl-1 A1 inh	Beta cell apopt	rRNA inh HTS	Calb FLC	RanGTP-Impb inh	rRNA inh HTS OD600	T cruzi repl	rRNA inh HTS RFP	Vif TR-FRET	MLL AF4-AF9 inh
COCc1nnc(NC(=O)CC(C)c2ccccc2)s1 (stereo not given)	-0.2	4	x	-24	-2.9	x	-4	x	0%	x
O=C(NCc1ccco1)c1cccn2c(=O)c3sccc3nc12	x	3	-8	11	8.3	-9	2	0.9	2%	x
OCCNc1ncnc2c1cnn2Cc1ccccc1	0.7	-3	14	2	-1.6	14	-7	11	6%	u
O=C(Nc1cccn(Cc2ccccc2)c1=O)NC1CCCCC1	-0.1	-2	x	-4	-0.2	x	-4	x	2%	x
CCNC(=S)Nc1ccc2c(c1)oc1ccccc12	0.2	3	-10	28	3.7	1	-8	-3.7	x	3.6
COc1ccccc1CNC(=O)COC(=O)COc1ccccc1F	-0.5	2	x	x	x	x	x	x	-5%	-1.3
Cc1cnn(C(=O)c2cc(-c3ccccc3)nc3ccccc23)c1	-0.2	6	x	8	1.5	x	-13	x	4%	x
O=C1NCCN1CCNS(=O)(=O)c1ccc(F)c(Cl)c1	0.0	-1	-7	-1	2.1	6	0	-1.2	9%	-1.5
O=C(c1ccco1)N1CCN(c2ccc(Cl)c(Cl)c2)CC1	1.4	5	x	-10	5.8	x	-4	x	-11%	x
COc1cccc(C(=O)Nc2ccc(NC(C)=O)cn2)c1	-8.9	0	x	8	-0.5	x	-7	x	10%	x
Cc1ccc(CNC(=O)C2CCCN(c3nc(C)cc(C)n3)C2)cc1 (stereo not given)	-0.9	-4	19	5	0.0	11	3	0.0	3%	-1.1
O=C(Cc1ccc([N+](=O)[O-])cc1)N/N=C/c1cccnc1	0.9	-4	26	-5	3.7	13	-4	2.3	x	x
CCC1=[N+](CC(=O)c2ccc(Br)cc2)CCn2c(C)ccc21	-1.1	2	-2	-3	7.1	6	8	2.2	u	8.2
C=C(C)C(=O)N1CC2(CC(c3cccc(NC(=O)CCCCC)c3)=NO2)C[C@H]1C(N)=O (stereo not given in full)	1.6	-4	6	-4	0.4	18	6	8.4	6%	-1.2
CCCOc1ccc(-c2nnn(CC(=O)c3ccc4c(c3)OCCO4)n2)cc1	-0.6	4	5	12	1.2	2	0	-2.8	-1%	-40
C=C(C)CN(CC)C(=O)c1ccc(OC2CCN(S(=O)(=O)N(C)C)CC2)cc1	-0.1	-5	-1	41	5.5	8	-18	2.0	2%	0.6
COc1ccc(CC(=O)NNC(=O)Cc2ccc(OC)cc2)cc1	-0.2	-10	x	17	u	x	-16	x	-5%	x
Cc1ccc(-c2nnc(NC(=O)c3ccco3)o2)c(C)c1	0.4	1	-24*	u	3.3	-18*	10	-3.1*	-3%	0.6
N#Cc1ccc(C(c2nnnn2Cc2ccccc2)N2CCCC2)cc1 (stereo not given)	0.2	x	x	-8	-0.6	x	-4	x	2%	x
COC(=O)c1c(N)n(CCCN2CCOCC2)c2nc3ccccc3nc12	0.5	-10	x	0	21*	x	-3	x	-2%	x
O=C(OCC(=O)c1ccccc1Cl)C1=NN(c2ccccc2)C(=O)CC1	1.4	-3	2	x	x	11	x	3.0	-6%	-2.8
CCOC(=O)C1C(c2ccc([N+](=O)[O-])cc2)C2C(=O)NN=C2CC1(C)O (stereo not given)	-0.8	-8	20	30	3.7	16	-14	4.4	0%	-7.2
O=C1c2ccccc2NC(c2ccc(Cl)cc2Cl)N1Cc1ccccc1 (stereo not given)	-0.6	19	x	-1	-10	x	24	x	6%	x
Cc1ccc(S(=O)(=O)NCCC(=O)OCC(=O)Nc2cccc(S(=O)(=O)NC3=NCCCCC3)c2)cc1	0.8	0	-1	-2	-3.4	-5	-11	0.9	-2%	-1.1
COc1ccc(N2CCN(c3ccc(S(=O)(=O)N(C(C)C)C(C)C)cn3)CC2)cc1	0.3	15	6	-5	-2.2	16	53	-4.0	x	-2.0
Nc1nncn1C(=O)c1c(Cl)cccc1Cl	0.2	-10	x	1	3.7	x	-12	x	1%	x
COC(=O)c1cnn2c1C(=O)N(Cc1cccs1)CC2	0.7	-6	6	-3	0.3	0	-8	-0.2	5%	-1.2
Cc1ccc(CSc2nnc([C@@H]3CCCN3)o2)cc1	0.5	-9	x	21	-0.8	x	0	x	0%	x
Nc1nnc(SCC(=O)OCc2ccc(Cl)c(Cl)c2)s1	0.4	x	x	-9	4.0	x	-4	x	6%	x
CCc1ccc(C(C)NC(=O)C2CCCC2)cc1 (stereo not given)	-0.1	1	4	-5	5.6	10	0	-0.1	-1%	-9.2

Part of the list above with just Vif TR-FRET and rRNA inh HTS RFP.
| SMILES | Vif TR-FRET | rRNA inh HTS RFP |
| --- | --- | --- |
| O=C(Nc1cccn(Cc2ccccc2)c1=O)NC1CCCCC1 | 2% | x |
| COc1cccc(C(=O)Nc2ccc(NC(C)=O)cn2)c1 | 10% | x |
| OCCNc1ncnc2c1cnn2Cc1ccccc1 | 6% | 11 |
| Cc1cnn(C(=O)c2cc(-c3ccccc3)nc3ccccc23)c1 | 4% | x |
| O=C(Cc1ccc([N+](=O)[O-])cc1)N/N=C/c1cccnc1 | x | 2.3 |
| O=C(NCc1ccco1)c1cccn2c(=O)c3sccc3nc12 | 2% | 0.9 |

Other records
canonical_smiles	Bfl-1 A1 inh	Beta cell apopt	rRNA inh HTS	Calb FLC	RanGTP-Impb inh	rRNA inh HTS OD600	T cruzi repl	rRNA inh HTS RFP	Vif TR-FRET	MLL AF4-AF9 inh
Cc1ccc(NC(=O)c2nc[nH]c2C(=O)N2CCOCC2)c(C(=O)c2ccccc2)c1	-1.1	2	-3	17	2.4	1	-2	1.5	10%	-2.0
COc1ccc2[nH]c3c(=O)n4c(nc3c2c1)SCC4	0.8	3	-10	7	2.7	-6	15	0.5	1%	-1.0
CCCOc1ccc2oc(=O)c3c(c2c1)CCCN3C(=O)CN1CCN(C(=O)c2ccco2)CC1	1.4	6	x	15	2.4	x	-18	x	u	x
CC(C)N(Cc1nc(-c2ccccc2)no1)C(=O)c1ccc([N+](=O)[O-])cc1	-0.2	1	-3	6	7.9	-15	15	-5.2	8%	4.6
Cn1cc(CN2CCC(n3nccc3NC(=O)c3ccccc3Cl)CC2)c2ccccc21	0.0	12	2	-20	2.2	3	30	5.3	x	19
COCCn1c(SCC(=O)Nc2cccc(OC)c2)nnc1-c1ccccc1	0.3	x	-1	-14	-4.6	6	1	3.6	0%	-1.2
O=C(CNS(=O)(=O)c1cccc(Cl)c1)Nc1ccc(-c2nc3ccccc3s2)cc1	-0.9	7	x	6	3.7	x	11	x	x	x
O=C(O)CSc1nnc(Cc2ccccc2)n1-c1ccccc1	0.0	-9	x	0	-0.5	x	-8	x	9%	x
COc1ccc(NC(=O)/C=C/C(=O)O)c([N+](=O)[O-])c1	3.9	x	10	14	u	-8	-13	-3.6	0%	-1.3
CCOc1ccc(-c2[nH]ncc2-c2ccc(Cl)cc2)c(O)c1	1.1	8	-57	-19	-3.3	-80	11	-19	6%	4.3
Cc1ccc(C(=O)NCCc2ccccc2)cc1N1CCCC1=O	-0.8	-1	x	-2	0.6	x	28	x	x	x
COc1ccc(NC(=O)CN2CCN(C(C)=O)CC2)cc1S(=O)(=O)N1CCOCC1	-1.6	-6	10	x	x	15	x	-1.3	x	0.4
COc1ccc(OC)c(-n2c(-c3cc(-c4ccccc4)n[nH]3)n[nH]c2=S)c1	0.7	-5	x	11	3.8	x	-1	x	x	x
O=c1cc(-c2ccccc2)[nH]c2cc(F)ccc12	0.9	12	9	-11	2.5	13	-35	1.3	0%	2.5
CCOC(=O)C1(CCc2ccccc2)CCN(C(=O)CCn2cnnn2)CC1	0.0	-5	-2	7	-2.3	-9	5	-5.3	8%	-2.9
CCOC(=O)N1CCN(C(=O)COCc2cc(-c3ccc4c(c3)OCO4)on2)CC1	0.8	-5	-6	4	0.2	-9	-20	2.6	-18%	1.8
NS(=O)(=O)c1ccc(CNC(=S)NC2CC2)cc1	-0.3	-6	10	-7	5.5	5	-7	0.3	4%	-2.0
O=C(O)c1ccc(Cl)c(S(=O)(=O)Nc2ccc3[nH]c(=O)[nH]c3c2)c1	0.3	-7	10	5	22*	13	-7	6.5	20%	-3.4
CCN1/C(=C/C=C/c2oc3ccc(-c4ccccc4)cc3[n+]2CC)Oc2ccc(-c3ccccc3)cc21	-1.0	111*	87	75*	-0.1	10	90*	61	30%	-30
Cc1cccc(N(CC(=O)N2CCN(c3ccc(F)cc3)CC2)S(C)(=O)=O)c1C	0.0	x	-2	-1	1.5	-3	-2	1.4	-2%	2.3
CCCCN(C(=O)c1cccc(-c2ccc(OC(C)=O)cc2)c1)c1c(N)n(CCC)c(=O)[nH]c1=O	-0.1	0	5	x	x	4	x	-2.6	x	0.3
COc1c(/C=N/Nc2ccc(C(=O)O)cc2)c(CCN(C)C(C)=O)cc2c1OCO2	-0.5	-4	13	-8	-0.2	12	-1	-3.4	u	-1.0
Cc1ccccc1NC(=O)c1ccc(Nc2c([N+](=O)[O-])cc([N+](=O)[O-])c3ccccc23)cc1	0.1	31	4	26	-4.5	0	63*	-4.6	24%	-1.0
COc1cc(Br)cc(C2C3=C(CCCC3=O)N(c3ccc(F)cc3)C3=C2C(=O)CCC3)c1O	0.5	-7	-18	27	-1.1	-35	53	-6.9	3%	8.8
Cc1ccc(S(=O)(=O)N2CCN(C(=O)c3ccc(-n4cncn4)c([N+](=O)[O-])c3)CC2)cc1C	1.4	x	10	0	3.5	5	32	2.1	1%	0.8
COC(=O)c1ccccc1NC(=O)c1cc(OC)cc(OC)c1	0.0	x	x	22	-0.5	x	28	x	-6%	x
O=S(=O)(N1CCCCCC1)N1CCN(S(=O)(=O)N2CCCCC2)CC1	x	x	14	-15	-2.9	9	-8	-4.2	0%	3.4

Compound activity as filed in PubChem BioAssay.

A portion of the library (hit frequency here may not be typical).
